MARV entry inh = qHTS for inhibitors of binding or entry into cells for Marburg Virus; Marburg virus pseudotyped entry inhibition, cell reporter; control for the full effect not named in the record; about a third of the inactives were read at about 46 µM; Potency, µM (highest dose often 37.8 µM), inactives show at the top dose activity change, negative = inhibition, hits mostly inhibitors; 1.8% of 300,000 active; AID 540276, 2011; active = well fitted inhibition curve with a large enough effect; inconclusive = small, poorly fitted or top-dose-only effect, or effect the other way; inactive = flat fitted curve, though single readings scatter; tested in HEK293 cells; about a fifth of its hits are not listed in these tables; also: % is scaled to controls: 0 for no effect and ±100 for the full control effect; luciferase read-out
LASV entry inh = qHTS for Inhibitors of binding or entry into cells for Lassa Virus; Potency, µM (top dose mostly 37.9 µM), without a hit: at the top dose activity change, negative = inhibition, most hits filed as inhibitors; Lassa virus pseudotype entry inhibition, cell reporter; control for the full effect not named in the record; 1.2% of 300,000 active; AID 540256, 2011; active means well fitted inhibition curve with a large enough effect; inconclusive means small, poorly fitted or top-dose-only effect, or effect the other way; inactive means flat fitted curve, though single readings scatter; tested in HEK293 cells; also: % is scaled to controls: 0 for no effect and ±100 for the full control effect; nearly all actives have a fitted effect of over 50% in size; luciferase read-out
Cruzain inh noDet = qHTS Assay for Promiscuous and Specific Inhibitors of Cruzain (without detergent); Potency, µM, for inactives: max response, negative = inhibition, usual class: inhibitors; purified cruzain, Z-FR-AMC fluorescence, no detergent; 2.3% of 200,000 active; AID 1476, 2009; active = well fitted curve in the direction sought with a large enough effect; inconclusive = small, poorly fitted or top-dose-only effect, or another doubt; inactive = no such curve, though single readings can be large; an effect the other way counts as inactive or inconclusive;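 also: plate controls were enzyme without inhibitor for no effect and buffer without enzyme for full effect; nearly all actives have a fitted effect of over 40% in size; top concentration of the series not given in the record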
Target sequence (P25779 123-467 limits assumed): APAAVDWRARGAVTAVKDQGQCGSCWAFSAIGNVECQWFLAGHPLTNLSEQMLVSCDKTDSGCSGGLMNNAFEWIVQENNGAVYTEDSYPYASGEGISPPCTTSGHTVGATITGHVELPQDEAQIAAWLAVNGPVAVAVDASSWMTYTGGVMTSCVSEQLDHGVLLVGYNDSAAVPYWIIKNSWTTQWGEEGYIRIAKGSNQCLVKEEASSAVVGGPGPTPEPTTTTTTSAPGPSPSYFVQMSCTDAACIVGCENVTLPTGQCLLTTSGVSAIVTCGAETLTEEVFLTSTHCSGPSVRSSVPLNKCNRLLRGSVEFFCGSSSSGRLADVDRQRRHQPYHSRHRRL
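Detergent-free condition (0.00005% Triton X-100) in acetate buffer pH 5.5 with DTT. 1.5 nM enzyme and compound were pre-mixed 15 min, then 2 uM Z-FR-AMC substrate added; reaction progress from fluorescence change between first and third reads (60 s).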
Cruzain inh Det = qHTS Assay for Promiscuous and Specific Inhibitors of Cruzain (with detergent) | Cruzipain (Trypanosoma cruzi), P25779 | 0.43% of 200,000 active | purified cruzain, Z-FR-AMC fluorescence, 0.01% Triton | Potency, µM, for inactives: max response, negative = inhibition, hits mostly inhibitors; active = well fitted curve in the direction sought with a large enough effect; inconclusive = small, poorly fitted or top-dose-only effect, or another doubt; inactive = no such curve, though single readings can be large; an effect the other way counts as inactive or inconclusive;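 also: plate controls were neutral wells for no effect and buffer without enzyme for full effect; nearly all actives have a fitted effect of over 40% in size; top concentration of the series not given in the record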
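Steps: dispense cruzain (1.5 nM final) in acetate buffer pH 5.5 with DTT and 0.01% Triton X-100; pin-transfer compounds; incubate 15 min RT; add Z-FR-AMC (2 uM final); read fluorescence every 30 s, using the 60 s intensity change.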
NS1 function inh = qHTS Assay for Inhibitors of Influenza NS1 Protein Function; 0.4% of 270,000 active; AID 2326, 2010; Potency, µM (top dose mostly 46.1 µM), inactives show at the top dose activity, positive = more growth; S. cerevisiae slowed by influenza A NS1, growth recovery by OD600; also: actives are rising curves; nearly all actives have a fitted effect of over 50% in size
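S. cerevisiae expressing influenza A NS1, grown in glucose, washed, then diluted 1:100 into pH 6.0 -URA galactose medium with 23 nl compound. Growth recovery read as OD600; NS1-free strain serves as control.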
SARS PLpro yeast = qHTS of Yeast-based Assay for SARS-CoV PLP; AID 485353, 2010; S. cerevisiae expressing SARS-CoV PLpro, growth rescue; control for the full effect not named in the record; Potency, µM (series often up to 32.9 µM), without a hit: at the top dose activity, positive = growth rescue; 0.19% of 330,000 active; also: 0% is about no effect; nearly all actives have a fitted effect of over 55% in size; growth read by luminescence after 48 h
StopGo reporter = High Throughput Screening for Foot and Mouth Disease Virus Antivirals; Potency, µM (doses to about 57.9 µM), without a hit: top-dose signal change, negative = less light; 1.2% of 410,000 active; human cells with a luciferase reporter of 2A StopGo recoding; control for the full effect not named in the record; active = well fitted falling curve with a large enough effect; inconclusive = small, poorly fitted or top-dose-only effect; inactive = no such curve, though single readings can be large or run the other way; tested in HEK293T cells; also: % is scaled to controls: 0 for no effect and ±100 for the full control effect; nearly all actives have a fitted effect of over 45% in size; luciferase light after 4 h
RE007 growth inh = qHTS Assay for Inhibitors of the HIV-1 protein Vpr; S. pombe RE007 Vpr strain, BacTiter-Glo ATP luminescence, 24 h; control for the full effect not named in the record; Potency, µM (series often up to 92.2 µM), inactives show top-dose activity change, negative = less growth; 0.21% of 360,000 active; active = well fitted falling curve with a large enough effect; inconclusive = small, poorly fitted or top-dose-only effect; inactive = no such curve, though single readings can be large or run the other way;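 also: % is scaled to controls: 0 for no effect and ±100 for the full control effect; nearly all actives have a fitted effect of over 50% in size; the assay follows cell death caused by Vpr and the record does not say whether a fall means rescue or toxicity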
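Fission yeast strain RE007, carrying one chromosomally integrated HIV-1 vpr copy, was seeded at OD 0.01 in PMG+AL medium with 23 nL pinned compound. After 24 h at 30 °C and 99% humidity, viability was read by BacTiter-Glo luminescence.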
* marks the source's active call; other numbers are inactive results; ? = inconclusive; · = not tested or not shown; & = joins results of further samples; [ ] = remark or other dose. Unless noted, calls follow the shape of the dose curve; as a rule, active means well fitted rising curve with a large enough effect; inconclusive means small, poorly fitted or top-dose-only effect; inactive means no such curve, though single readings can be large or run the other way. Potency is read from the fitted curve at half-maximal effect.

SMILES	MARV entry inh	LASV entry inh	Cruzain inh noDet	Cruzain inh Det	NS1 function inh	SARS PLpro yeast	StopGo reporter	RE007 growth inh
CCOC(=O)C1CCCCN1C(=O)c1ccc2nc(Cc3ccc(OC)cc3)oc2c1 (stereo unspecified)	·	·	·	·	-11%	2%	6%	2%
CCN(CC)CCOc1c(Br)ccc2c1sc1nc3n(c(=O)c12)CCC3	?	4%	-4%	-3.8%	-31%	0%	4%	-19%
CS(=O)(=O)CCC(C(=O)OCc1ccc(Cl)cc1)N1C(=O)c2ccccc2C1=O (stereo unspecified)	?	1%	?	-2.8%	-14%	-2%	-30%	·
CCOC(=O)c1c(C)[nH]c(C(=O)COC(=O)CCC(=O)c2ccc3c(c2)OCCO3)c1C	17%	-2%	8%	-27%	-4%	-3%	5%	-19%
CC(C)CN(C(=O)COC(=O)CCCc1c[nH]c2ccccc12)c1c(N)n(Cc2ccccc2)c(=O)[nH]c1=O	?	1%	·	·	14%	-3%	-18%	-13%
O=C(c1cc(-c2ccc(Cl)c(Cl)c2)on1)N1CCCCCC1	?	8%[46.1 µM]	·	·	9%	2%	14%	0%
Nc1ccc(OCc2ccccc2)cc1	·	·	-14%	-0.5%	?	-9%	25%	-7%
COC(=O)CN1C(=O)C(O)(CC(=O)c2ccccc2)c2ccccc21 (stereo unspecified)	8%	-16%	5%	-0.7%	-2%	1%	4%	12%
CCOC(=O)Cc1csc(NC(=O)CSc2ncnc3c2cnn3-c2ccccc2Cl)n1	?	?	4%	-8.2%	-46%	-14%	?	6%
COc1ccc(OCc2cccc(C(=O)Nc3ccc(CN4CCCCC4)cc3)c2)cc1	?	?	-4%	-7.9%	-9%	-20%	-25%	-10%
Cc1nn(Cc2ccc(F)cc2)c(C)c1NC(=O)c1nn(C)cc1Cl	-12%	-9%	-8%	-1.6%	0%	20%	-24%	-17%
COc1ccccc1NC(=O)C[n+]1ccccc1C	-19%	11%	·	·	44%	6%	-13%	-1%
C/C(N)=C(/C#N)C(=O)COC(=O)CCC1CCCC1	3%[46.1 µM]	5%	-1%	-9.9%	7%	-6%	7%	22%
CCCCn1c(-c2ccccc2)nnc1-c1ccccc1	1%	-12%	0%	3.8%	-106%	-3%	-14%	4%
Cc1ccc(C)c(OC(=O)c2cccnc2)c1	·	·	·	·	-19%	3%	-8%	3%
NC1=NC(=O)C(CC(=O)c2ccc(Cl)cc2)S1 (stereo unspecified)	16%	2%	-3%	0.4%	3%	1%	-17%	-7%
O=S(=O)(c1ccc(-c2cc(C(F)(F)F)on2)s1)N1CCCC1	?	2%	·	·	-2%	0%	-9%	-6%
O=C(Nc1nc2ccc(Br)cc2s1)c1ccco1	?	?	·	·	-26%	-6%	12%	4%
COCCNC(=O)CCc1nnc(Cc2ccc(-c3ccccc3)cc2)o1	·	·	·	·	-2%	0%	9%	-6%
CN(c1ccccc1)S(=O)(=O)c1ccc(NC(=O)CC(=O)c2ccccc2)cc1	-43%	-19%	·	·	·	·	40µM*	42%
Cc1nc2ccc(S(=O)(=O)N(C)CC(=O)NCc3ccc4c(c3)OCO4)cc2s1	2%	3%	3%	5.5%	-6%	-4%	-8%	2%
CC(=O)OC1c2ccccc2C(=O)N1c1ccccc1C (stereo unspecified)	2%	1%	-1%	0.1%	7%	5%	-8%	5%
O=C(NCC(c1ccco1)S(=O)(=O)c1ccc(Cl)cc1)c1ccc(C(F)(F)F)cc1 (stereo unspecified)	·	?	-21%	-8.7%	·	·	?	·
NS(=O)(=O)c1ccc(CNC(=O)/C=C/c2ccc(Cl)c(Cl)c2)cc1	19%	4%	2%	-3.5%	1%	13%	-14%	-4%
CCOC(=O)c1ccc2c(c1)NC(=O)C(N1CCN(c3ccc(OC)cc3)CC1)S2 (stereo unspecified)	-31%	-19%	6%	0.3%	-28%	-8%	?	0%

Further structures
SMILES	MARV entry inh	LASV entry inh	Cruzain inh noDet	Cruzain inh Det	NS1 function inh	SARS PLpro yeast	StopGo reporter	RE007 growth inh
CCNc1nc(Nc2ccc(C)c(Cl)c2)c2cnn(C)c2n1	·	·	·	·	-4%	-3%	?	0%
O=C(CCC(=O)NNC(=O)COc1ccc(Br)cc1Br)NCc1ccccc1	24%[46.1 µM]	4%	·	·	3%	1%	13%	1%
Cc1ccc(C(=O)Nc2cccnc2)cc1S(=O)(=O)N1CCCCC1	?	-8%	·	·	-2%	-1%	-36%	13%
OCCNc1nc(N2CCN(Cc3ccccc3)CC2)nc2ccccc12	?	0%	3%	7.5%	-5%	7%	-1%	5%
COc1cccc(C(=O)Nc2cc(OC)ccc2NC(=O)c2ccco2)c1	12%	?	·	·	-4%	1%	-5%	13%
CC(C)Oc1cccc(C(=O)C2CCCN(Cc3cnc(N4CCCC4)s3)C2)c1 (stereo unspecified)	?	?	·	·	0%	1%	?	-8%
COc1ccc(CC(=O)NCc2ccc3c(c2)CCN3C(C)=O)cc1OC	·	5%[46.1 µM]	18%	3.5%	·	·	-9%	·
CCc1ccc(N2CC34C=CC(O3)C(C(=O)OC(C)C)C4C2=O)cc1 (stereo unspecified)	·	·	2%	-11%	-3%	-3%	-15%	2%
COc1ccc(N2CCN(c3c4c(nc5nncn35)CCC4)CC2)cc1	?	1%[46.1 µM]	-6%	0.2%	·	·	?	·
COc1ccc(NC(C)C(=O)N2CCN(Cc3ccccc3)CC2)cc1 (stereo unspecified)	?	-29%[46.1 µM]	·	·	-17%	-1%	5%	-6%
CNS(=O)(=O)c1cc(-c2nnc(Nc3ccc(CC(N)=O)cc3)c3ccccc23)ccc1C	·	·	·	·	-73%	-1%	75%[activator]	15%
CN(C(=O)CN1C(=O)/C(=C/c2ccc(Cl)cc2)SC1=S)C1CCS(=O)(=O)C1 (stereo unspecified)	·	·	·	·	12%	2%	0%	0%
CCOC(=O)N1CCN(CCC(=O)c2ccc(Cl)cc2)CC1	-2%	-2%	13µM*	14µM*	-80%	-15%	?	32µM*
Cc1ccc(Nc2ncnc3sc(C)c(C)c23)cc1	5%&5%	5%	-8%	-5.9%	-13%	13%	40%[activator]	2%
CC1CN=C(N(C(=O)Nc2ccccc2)c2ccc(S(=O)(=O)N3CCOCC3)cc2)S1 (stereo unspecified)	-18%&-18%	4%	-9%	-0.4%	-4%	1%	-19%	-15%
Cc1ccc(CN(Cc2ccco2)C(=O)COc2ccc(C)c(C)c2)cc1	?	?	-1%	-7.6%	·	·	-12%	·
O=c1oc2ccccc2n1CCc1ccccc1	0%	?	-1%	-1.3%	-7%	?	0%	?
CC(=O)NC(Cc1c[nH]c2ccccc12)C(=O)N1CCN(S(=O)(=O)c2ccccc2)CC1 (stereo unspecified)	?	-4%	·	·	·	-5%	-9%	3%
CC1CCCCN1C(=O)CSc1nc2ccccc2nc1Cc1ccc(Cl)cc1 (stereo unspecified)	·	?	-6%	-1.7%	·	·	-26%	·
O=C(Nc1ccc(Cl)c(Cl)c1)C1C2C=CC3(O2)C1C(=O)N(CCN1CCCCC1)C3C(=O)NC1CCCCC1 (stereo unspecified)	?	-18%[46.1 µM]	·	·	7%	-1%	-2%	3%
Nc1nc(CSC(=S)N2CCOCC2)nc(Nc2ccc(F)cc2)n1	-16%	16%	-5%	-5.7%	3%	11%	86%[activator]	-9%
COCCNc1oc(-c2ccccc2)nc1S(=O)(=O)c1ccc(Br)cc1	·	?	6%	-5.5%	·	·	16%	·
Cc1ccc(S(=O)(=O)N2CCOCC2)c(C)c1-n1cnnn1	6%	1%	-6%	0.1%	-5%	3%	·	-1%
Cc1ccc(N(C)C(=O)CN2C(=O)CCc3cc(S(=O)(=O)N4CCOCC4)ccc32)cc1	·	23%[46.1 µM]	-9%	-0.5%	·	·	18%	·

One compound at a time, as listed above. Values in the order: MARV entry inh	LASV entry inh	Cruzain inh noDet	Cruzain inh Det	NS1 function inh	SARS PLpro yeast	StopGo reporter	RE007 growth inh
Listed for O=C(Nc1nc2ccc(Br)cc2s1)c1ccco1 = ?	?	·	·	-26%	-6%	12%	4%
Listed for Cc1ccc(CN(Cc2ccco2)C(=O)COc2ccc(C)c(C)c2)cc1 = ?	?	-1%	-7.6%	·	·	-12%	·
Listed for Cc1ccc(N(C)C(=O)CN2C(=O)CCc3cc(S(=O)(=O)N4CCOCC4)ccc32)cc1 = ·	23%[46.1 µM]	-9%	-0.5%	·	·	18%	·
Listed for Nc1nc(CSC(=S)N2CCOCC2)nc(Nc2ccc(F)cc2)n1 = -16%	16%	-5%	-5.7%	3%	11%	86%[activator]	-9%
Listed for COc1ccc(N2CCN(c3c4c(nc5nncn35)CCC4)CC2)cc1 = ?	1%[46.1 µM]	-6%	0.2%	·	·	?	·
